Bioassay records: PubChem, Fisher Drug Discovery Resource Center
NPYLR7 ag: mosquito NPYLR7 agonism. HEK293T NPYLR7/Galpha15, GCaMP6s calcium fluorescence. activation, % at 10 µM. 0.15% of 270,000 active. AID 1259423; in the data active means activation above about 40%;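 further: 0% = vehicle and 100% = reference agonist at the receptor; some compounds past the cut are filed as inactive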
NPYLR7 ag max-min: second read-out of NPYLR7 ag, no call of its own (marks repeat the call); activation, %; measured here: Max-Min RFU normalised activation; some inactives read as strong as hits;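 span of the calcium signal over five minutes; 0% = vehicle and 100% = native peptide agonist; compound fluorescence can raise it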
Starred values were filed as active, the others as inactive; & = joins results of further samples. A portion of the library; rates above refer to the full screens.

structure	NPYLR7 ag	NPYLR7 ag max-min
COc1cccc(C(=O)CSc2nnc(-c3cccnc3)n2Cc2ccco2)c1	9	9
Cc1nn(-c2ccccc2)c(Oc2ccccc2)c1CN(Cc1ccccc1)CC(O)COCC(C)C (stereo unspecified)	-8	-7
O=C(CCN(CCCN1CCOCC1)c1nc(-c2ccco2)nc2ccccc12)N1CCN(c2ccccc2F)CC1	-3	4
COC(=O)C(C)Sc1ncnc2c1nnn2-c1ccc(F)cc1 (stereo unspecified)	9	20
CCN(CC)CCN1CCN(c2cc(C(=O)Nc3cc(OC)c(OC)c(OC)c3)ncn2)CC1	-5	-7
O=C(Nc1ccc2c(c1)CCCN2S(=O)(=O)c1cccs1)c1ccccc1C(F)(F)F	-2	6
Cc1ccc(CCC(=O)NNC(=O)Cc2ccc(F)cc2)c(C)c1	16	14
COCCNC(=O)Cn1cnc2c(nnn2-c2ccc(C)c(Cl)c2)c1=O	-3	-6
CC(=O)NC(C)c1nc2ccccc2n1CC(=O)Nc1ccc(Cl)cc1F (stereo unspecified)	14	5
O=[N+]([O-])c1cccc(-c2n[nH]c(=S)o2)c1	22	14
CC(=O)Nc1cccc(-c2cnc(NC(C)=O)cn2)c1	2	-1
Cc1cn2c3c(=O)n(C)c(=O)n(C)c3nc2n1Cc1ccc(Cl)cc1Cl	2	1
Cc1cc(C(=O)NCC2CC(=O)N(C3CCCC3)C2)n[nH]1 (stereo unspecified)	10	10
COc1ccc(C2=NOC(CN(Cc3cccc(F)c3)C(=O)c3ccco3)C2)cc1OC (stereo unspecified)	15	16
O=C(CCc1ccccc1)N1CCCC(Nc2ccccc2)C1 (stereo unspecified)	-9	5
Cc1cccc(Cl)c1S(=O)(=O)N1CCC(O)(C(=O)O)CC1	0	-2
O=C(/C=C/c1ccccc1)Nc1ccc2c3c(cccc13)CC2	1	3
C/C=C(\C)C(=O)N1CC(=O)N2CCc3cc(OC)c(OC)cc3C2C1 (stereo unspecified)	24	20
COc1cccc(C=C2N=C(c3ccccc3)OC2=O)c1	-2	-3
COc1ccc(C(=O)Nc2cc3c(C)cc(=O)oc3cc2C)o1	24	17
CC1(C(=O)NS(=O)(=O)c2ccc3ccccc3c2)CCN1C(=O)Cc1ccsc1 (stereo unspecified)	0	-2
Cc1nn2c(CN(C(=O)CN3CCOCC3)c3ccccc3)nnc2c2ccccc12	2	2
CCCN(CC(=O)N(CCc1c[nH]c2ccccc12)Cc1ccc(C(C)(C)C)cc1)C(=O)C1CCC1	-3	1
FC(F)(F)c1ccc(-c2nc(CSCc3ccco3)cs2)cc1	-5	-15
Cc1cccn2c(CC(=O)NCc3nncn3C3CCCCC3)cnc12	6	7
Cc1ccc(Oc2ncccc2CNC(=O)c2c(C)cccc2Cl)cn1	-1	-1
CC1(C(=O)NS(=O)(=O)Cc2ccccc2C(F)(F)F)CCN1C(=O)c1ccccc1 (stereo unspecified)	0	-2
O=C1OC(c2ccc(Br)o2)=N/C1=C\c1coc2ccc(Cl)cc2c1=O	-12	-16
COc1ccc(OC)c2sc(N(Cc3ccccc3)C(=O)CS(=O)(=O)c3ccccc3)nc12	-6	-9
O=C(/C=C/c1cccnc1)N1CCc2ccc(NC(=O)C3(c4ccccc4)CC3)cc2C1	-2	-7
C=CCN(CC1CCCCC1)C(=O)c1csc(S(N)(=O)=O)c1	0	1
CC1Cc2nc(SCC(=O)NCc3ccccc3)n(Cc3ccccc3)c(=O)c2S1 (stereo unspecified)	2	-2
CC(N(C)C(=O)Nc1cccc(N2CCOC2=O)c1)C1(C)CC1 (stereo unspecified)	-18	-20
CC(C)C(=O)N[C@H]1C[C@@H](C(=O)NCCCN2CCCC2=O)N(C)C1	3	-1
C[C@@H]1CCC2[C@](C)(CO)[C@@H](O)CC[C@]2(C)[C@]12CCC(CO)(CCO)O2 (stereo partly specified)	4	4
CCN(CC)C(=O)CSc1nnc(SC(C)C(=O)NC(=O)NC)s1 (stereo unspecified)	10	11
CC1CCN(CCCNS(=O)(=O)c2cc(F)cc(F)c2)CC1	16	8
Cc1nc(Sc2ccc3c(c2)OCCO3)c2c3c(sc2n1)CCCC3	6&-9	2&-17
COc1ccc(Cn2cnc3c4ccccc4n(CC(=O)NCCc4ccccc4)c3c2=O)cc1	0	-7
CN(Cc1nc2ccccc2n1C)C(=O)c1ccc(-c2ncn[nH]2)cc1	12	9

Later entries.
Structure	NPYLR7 ag	NPYLR7 ag max-min
CCCCCOc1ccc(Nc2ccc(-c3cccc(OCC)c3)cn2)cc1	-1	-5
Cc1nc(SCc2cc(C(=O)O)c(C)o2)c(C#N)c(C)c1C	0	-3
O=C(C1CCN(C2=NS(=O)(=O)c3ccccc32)CC1)N1CCCc2ccccc21	5	3
Cc1ccc(NC(=O)c2nc[nH]c2C(=O)Nc2ccc(C)cc2)cc1	-4	-5
CC(C)c1ccc(Nc2nnc(SCC(=O)N(C(C)C)C(C)C)s2)cc1	0	4
CSc1ccc(CNC2CCN(C(=O)c3ccoc3)CC2)cc1	2	3
COCc1cc(N(C)CCc2ccc(OC)c(OC)c2)nc(SCc2ccc(C(=O)NCc3ccc4c(c3)OCO4)o2)n1	14	17
Cc1ccc(/C=N\N=C2/NC(=O)C(CC(=O)Nc3ccccc3C(F)(F)F)S2)o1 (stereo unspecified)	13	11
CC(=O)NCC1CCN(Cc2nnc(C)o2)CC1	-2	-3
COc1ccc(CN2CCCC2)cc1Oc1ccnc2ccccc12	2	-4
COc1cccc(-c2cc(C(=O)N3CCN(C(c4ccccc4)c4ccccc4)CC3)n(-c3ccc(C)cc3)n2)c1	1	14
COCc1cc(N(C)CCc2ccc(OC)c(OC)c2)nc(SCc2ccc(C(=O)NCCN3CCOCC3)o2)n1	13	15
COC(=O)c1cc(-c2cc(OC)ccc2F)c[nH]1	0	8
Cc1c(Cl)cccc1-n1nnc(C(=O)N(C)C2CCS(=O)(=O)C2)c1C (stereo unspecified)	3	2
COc1cc(NC(=O)N2CCc3cc(OC)c(OC)cc3C2c2ccccc2Cl)cc(OC)c1 (stereo unspecified)	15	5
O=C(Nc1cccc(-c2cc3ccccc3[nH]2)c1)C1CCCN1Cc1ncc[nH]1 (stereo unspecified)	12	0
N#Cc1c(N)c(C(=O)c2ccc(F)cc2)n2ccccc12	-4	-11
S=C(NCC1COc2ccccc2C1)Nc1cccc(Cl)c1 (stereo unspecified)	1	0
CCOc1ccccc1-c1nc(C(N)=O)c2[nH]c(=O)n(-c3ccc(OC)c(OC)c3)c2n1	-4	-7
CN(C)CCCN(C(=O)c1cccc([N+](=O)[O-])c1)c1nc2c(F)cc(F)cc2s1	5	3
CCOc1cc(C#N)ccc1Oc1cc(C)nc2ncnn12	7	5
CCC(=O)Nc1cccc(OCC(=O)N2C[C@H]3CC[C@H]2C3)c1	-4	-8
COC1(OC)C(C)(C)OC2c3ccccc3C(=O)CC2C1(C#N)C#N (stereo unspecified)	3	5
COc1cc(OC)cc(C(=O)N2CCN(C(C(=O)NCc3ccco3)C3CCCC3)CC2)c1 (stereo unspecified)	-5	-2
CCN(CC1CCOC1)C(=O)/C=C/c1ccc(C#N)cc1 (stereo unspecified)	6	6
CCOC(=O)c1cnn(-c2nc(CC)nc3sc4c(c23)CCC4)c1N	2	5
CCCCNC(=O)C1(C)CCN1Cc1ccc(NC(C)=O)cc1 (stereo unspecified)	7	1
CCOc1ccccc1C(=O)Nc1ccc(N2CCN(C(=O)c3ccc(OC(F)F)cc3)CC2)nc1	30	17
Cn1c(SCC(=O)N2CCc3sccc3C2)nnc1-c1cccnc1	-6	-7
CCN(Cc1cccs1)C(=O)CCn1c(=O)[nH]c(=O)c2ccccc21	4	1
COc1cccc(N2C(=O)C(=Cc3ccco3)C(=O)N(c3cccc(OC)c3)C2=O)c1	-5	-8
COc1ccc(CNc2oc(-c3ccc(COc4ccc(OC)cc4)o3)nc2C#N)cc1	1	3
O=C(NCCCNC(=O)[C@H]1CCCN1C(=O)Cc1cccs1)c1ccccc1	2	17
COc1ccccc1CCNC(=O)C(C1CCCC1)N1CCN(C(=O)c2ccc(F)cc2)CC1 (stereo unspecified)	-11	-10
C=CCNC(=O)N[C@H]1CCN(C(=O)C=C(C)C)[C@@H]1C(=O)N(C)CC(N)=O	-2	-14
O=S(=O)(N1CCc2ccccc2C1)N1CC[C@H](CO)[C@H](O)C1	12	6
c1cnc(-c2nc(Cn3cnnc3)cs2)cn1	2	-5
O=C(COCc1ccccc1)N1CCN(C(c2ccc(F)cc2)c2ccc(F)cc2)CC1	21	5
COc1ccc(NC(=O)C2CC2c2ccccc2F)c(OC)c1 (stereo unspecified)	4	7
CCOC(=O)N1CCN(C(=O)CSc2nc3c(c(=O)n2-c2ccccc2OC)SCC3)CC1	-7	-9
CCCN(C(=O)Nc1ccccc1Br)C(CC)c1nc2ccccc2c(=O)n1-c1ccc(OCC)cc1 (stereo unspecified)	15	14
COC(=O)c1ccc(S(=O)(=O)NNC(=O)c2cc(Br)cn2C)cc1	14	16
O=[N+]([O-])c1cccc(C=NNP2(=O)C=C(c3ccccc3)OC(c3ccccc3)=C2)c1	2	2
CCn1c(N)cc(=O)[nH]c1=O	-9	-16
COc1cc(NC(=O)C2CCCN2C(=O)C23CC4CC(CC(C4)C2)C3)cc(OC)c1OC (stereo unspecified)	3	1
O=C(c1ccc2c(c1)CCO2)N1CCN(Cc2ccc(-c3noc(C4CCCC4)n3)cc2)CC1	5	6
CCN(CC)S(=O)(=O)c1cccc(N=Nc2c[nH]c3ccccc23)c1	1	-3
Cc1ccc(N(CCCN2C(=O)c3cccc4cccc(c34)C2=O)C(=O)C23CC4CC(CC(C4)C2)C3)cc1	-4	-4
CCCCCc1ccc(C(=O)N(CC)CC(=O)Nc2cc(C(C)(C)C)nn2-c2ccc(Cl)c(Cl)c2)cc1	2	12
